# Rango release inh – inhibition of RanGTP-driven Rango-importin beta dissociation | Biochemical FRET Rango-importin beta, RanGTP-induced dissociation | Potency, µM (highest dose often 46.1 µM), inactives show at the highest dose activity change, negative = inhibition | actives 0.071% (n = 340,000); active means falling FRET ratio curve, often poorly fitted, with flat reads before Ran was added; inconclusive means other falling curves, or compound fluorescence or quenching; inactive means flat or rising ratio curve;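 note: potency is the fitted concentration of half-maximal effect; % of control where 0% means no effect; nearly all actives have a fitted effect of over 45% in size; -100% = wells without RanGTP and RCC1; the record marks most hits as doubtful in a second field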
#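 Compounds preincubate 5 min with complex of recombinant Rango and importin beta in PBS with 1 mM DTT. Ran (0.6 uM) loaded with 2 mM GTP plus 0.2 uM RCC1 starts dissociation; FRET is recorded 45 min later.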
# Rango complex inh – Rango-importin beta binding inhibition | Q14974 | Rango CFP/YFP FRET sensor + importin beta, 45 min | Potency, µM (top dose mostly 92.2 µM), for the others: at the top dose inhibition of complex formation | actives 0.031% (n = 340,000) | AID 540263; active = rising FRET ratio curve, often small or poorly fitted; inconclusive = mostly compound fluorescence or quenching in the first reads; inactive = flat curves in all reads;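 note: potency is the fitted concentration of half-maximal effect; 0% = DMSO wells and 100% = buffer wells lacking importin beta; nearly all actives have a fitted effect of over 15% in size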
# Target sequence (Q14974 whole entry, looked up): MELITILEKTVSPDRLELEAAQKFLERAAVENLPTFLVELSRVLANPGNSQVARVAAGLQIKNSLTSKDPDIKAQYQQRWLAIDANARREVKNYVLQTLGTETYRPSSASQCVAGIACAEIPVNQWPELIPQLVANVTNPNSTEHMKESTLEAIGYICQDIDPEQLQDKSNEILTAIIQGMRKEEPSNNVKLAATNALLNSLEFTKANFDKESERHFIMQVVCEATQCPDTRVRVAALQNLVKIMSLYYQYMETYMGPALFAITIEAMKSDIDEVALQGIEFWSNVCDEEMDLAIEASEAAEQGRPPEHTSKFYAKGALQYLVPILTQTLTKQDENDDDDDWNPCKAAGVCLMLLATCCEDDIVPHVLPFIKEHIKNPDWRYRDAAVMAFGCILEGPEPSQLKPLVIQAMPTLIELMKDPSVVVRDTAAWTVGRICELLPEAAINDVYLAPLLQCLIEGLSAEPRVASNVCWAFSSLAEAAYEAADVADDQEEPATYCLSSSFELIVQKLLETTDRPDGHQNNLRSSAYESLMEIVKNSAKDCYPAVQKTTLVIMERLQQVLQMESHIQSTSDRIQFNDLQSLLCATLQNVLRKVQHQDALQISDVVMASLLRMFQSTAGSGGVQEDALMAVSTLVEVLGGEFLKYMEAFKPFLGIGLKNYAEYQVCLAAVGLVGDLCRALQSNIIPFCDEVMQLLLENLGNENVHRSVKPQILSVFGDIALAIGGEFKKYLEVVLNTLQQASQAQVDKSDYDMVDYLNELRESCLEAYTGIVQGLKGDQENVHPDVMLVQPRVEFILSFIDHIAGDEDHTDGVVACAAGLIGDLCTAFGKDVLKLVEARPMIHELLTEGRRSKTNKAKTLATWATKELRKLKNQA
#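 Inhibition scored from the CFP 486 nm/YFP 530 nm FRET ratio 45 min after adding 0.125 microM importin beta to 50 nM Rango biosensor preincubated 5 min with compound (room temperature, PBS with DTT, Tween-20, BSA). No-importin wells as positive control.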
# miR-21 reporter – miR-21 reporter, rising signal | HeLa miR-21 FLuc reporter, luciferase, 48 h | Potency, µM (doses to about 38.3 µM), for the others: at the top dose reporter change, positive = more light | 340,000 tested, under 10 active | AID 2288; active = well fitted rising curve with a large enough effect; inconclusive = small, poorly fitted or top-dose-only effect; inactive = no such curve, though single readings can be large or run the other way;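 note: % of control where 0% means no effect; miR-21 action dims this reporter so a rising signal means less miR-21 action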
#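 HeLa miR-21-FLuc reporter line, endogenous miR-21; 2000 cells/well in DMEM/10% FBS; compound titration up to ~40uM final, 48 h, 37 degree Celsius; luciferase detection reagent, 15 min lysis, CCD luminescence.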
# GLA inh pH 4.5 – blocks human alpha-galactosidase A at pH 4.5 | P06280 | purified enzyme, 4-MU-alpha-Gal fluorescence, pH 4.5 | activity change, negative = inhibition, % at 105 µM | 230,000 tested, under 10 active | AID 1467; inconclusive = small, poorly fitted or top-dose-only inhibition, or a rising curve; inactive = flat fitted curve, though single readings scatter; no compound was filed as active;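 note: 0% = full activity with enzyme and -100% = basal without enzyme; dose as in the result columns while the protocol names 77 µM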
# * hit, by the source's call; ? = inconclusive; . = no result given; & = joins results of further samples. A portion of the library; the hit share may differ from the screen's.
SMILES,Rango release inh,Rango complex inh,miR-21 reporter,GLA inh pH 4.5
CCCSc1ccc([C@H]2N[C@@](CC(C)C)(C(=O)OC)[C@H]3C(=O)N(C)C(=O)[C@@H]23)cc1,1%,1.7%,.,.
O=P(O)(CCCCP(=O)(O)CCc1ccccc1)CCc1ccccc1,.,.,-5%,6
COc1cc(C2C(C(=O)Nc3ccccc3OC)=C(C)Nc3ncnn32)ccc1O (stereo unspecified),24%,-4.7%,-7%,-1
COc1ccc(N(C(=O)CCl)C(C)(C(=O)Nc2c(C)cccc2C)c2ccccn2)cc1 (stereo unspecified),5%,10%,-14%,1
O=C(O)CCc1ccc(-c2ccc(Br)cc2)n1-c1ccc(O)cc1,-12%,-3.2%,1%,.
NC(=O)C1CCN(S(=O)(=O)c2ccc3c(c2)OCCO3)CC1,-13%,0.2%,1%,2
Cc1ccsc1C1NC(=O)c2c(sc3c2CCN(C)C3)N1 (stereo unspecified),?,?,-25%,14
COc1ccc(OC)c(NC(=O)c2cnc3n(c2=O)CCS3)c1,26%,-3.4%,-9%,-4
COc1ccc(C(=O)NCc2cccs2)cc1S(=O)(=O)N1CCOCC1,-11%,-3.4%,-3%,-15
O=S(=O)(Cc1cc(Sc2ccc(Cl)cc2)nc(-c2ccccc2)n1)c1ccccc1,16%,1.4%,0%,0
CCN(CC(=O)NCc1ccc(F)cc1)CC(=O)Nc1ccc(Br)cc1F,0%,?,.,.
O=C(Nc1ccc(S(=O)(=O)Nc2ncccn2)cc1)c1ccco1,1%,-0.3%,1%,-9
Cc1ccc(NC(=S)Nc2ccc(OC(F)F)c(Cl)c2)cc1Cl,-10%,-0.4%,21%,-3
O=C(Nc1ccccc1)OCC1CCCO1 (stereo unspecified),4%,1.3%,.,.
CCOC(=O)Cn1c(=N)n(CCOc2ccc(OC)cc2)c2ccccc21,-7%,0.9%,1%&-1%,11
NC(=O)[C@@H]1CCCN1C(=O)c1cc(COc2ccc(F)cc2F)on1,16%,1.0%,-17%,.
CCOC(=O)C(NC(=O)N1CCCCC1)(c1ccccc1)C(F)(F)F (stereo unspecified),7%,1.7%,-6%,-11
O=C1c2cccc(OCC(=O)N3N=C(c4cccs4)CC3c3ccc(F)cc3)c2CCN1Cc1ccccc1 (stereo unspecified),-1%,-4.3%,-9%,2
Cc1cc(C)nc(-n2nc(C)c3c(=O)[nH]c(C(F)(F)F)nc32)n1,-9%,-0.8%,2%,-4
COc1ccc(-c2nnn(CC(=O)N(C3CCCCC3)C(C)C(=O)NC3CCCC3)n2)cc1OC (stereo unspecified),0%,-2.3%,-18%,-5
CC(=O)Oc1ccc(C(=O)Nc2cccc(NC(=O)c3ccco3)c2)cc1,14%,1.4%,-7%,.
CCNC(=O)CN(c1ccc(Oc2ccccc2)cc1)S(=O)(=O)c1ccccc1,11%,-1.6%,9%,.
CCn1c(CSc2nc3ccccc3n2C)nc2ccccc21,-13%,1.0%,-13%,0
Cc1ccc(S(=O)(=O)Nc2nc3n(n2)C(c2ccc(Cl)cc2)CC(=O)N3)cc1 (stereo unspecified),-8%,0.2%,-6%,-6
COCc1cc(CNC(=O)C2CCC(=O)N(Cc3ccccc3OC)C2)[nH]n1 (stereo unspecified),5%,-4.0%,-4%,.
Cc1ccc(S(=O)(=O)NCC2CCC(C(=O)NC3CCCCC3)CC2)cc1 (stereo unspecified),-5%,-1.4%,-6%,.
CCOc1ccc(N2CC(C(=O)NNC(=O)c3ccc(F)cc3)CC2=O)cc1 (stereo unspecified),-9%,0.8%,.,.
CN(Cc1ccccc1)C(=O)COC(=O)CCC(=O)c1ccc(F)cc1,-3%,-5.1%,.,.
C[N+](C)(CC#N)C/C=C\c1ccccc1,2%,2.6%,0%,7
O=C1C(Cl)=C(NCC2CCCO2)C(=O)N1c1cccc(Cl)c1Cl (stereo unspecified),?,?,0%,-6
CC1(c2ccccc2)CC(c2ccccc2)=Nc2nonc2N1 (stereo unspecified),1%,-0.1%,-8%,0
Cc1ccc(NC(=O)c2ccc(CSc3nccc(C)n3)cc2)cc1,11%,0.9%,-1%,-1
CCCc1nc2ccc([N+](=O)[O-])cc2[nH]1,-2%,?,-1%,2
O=C(Nc1cccc(S(=O)(=O)NC2=NCCC2)c1)C1CC(=O)N(c2ccc3c(c2)OCCO3)C1 (stereo unspecified),0%,-1.4%,-2%,-5
CN(C)S(=O)(=O)c1cccc(C(=O)OCC(=O)NCc2ccccc2)c1,-5%,-2.0%,0%,3
CCOc1ccccc1NC(=O)Cn1[nH]c(=O)c2ccccc2c1=O,.,.,-2%,-7
CCCCn1c(N)c(N(CCOC)C(=O)c2oc3ccc(OCC)cc3c2C)c(=O)[nH]c1=O,-16%,?,.,.
CSc1nc(N)nc(SCC(=O)C23CC4CC(CC(C4)C2)C3)c1C#N,-3%,1.8%,0%,-4
Cc1c(N=Cc2ccc(Cl)o2)c(=O)n(-c2ccccc2)n1C,-6%,-2.3%,2%,-24
COC(=O)c1ccc(Cn2cnc3c(N)ncnc32)cc1,-2%,0.5%,.,.

# Compound profiles (already shown). Screens in order: Rango release inh | Rango complex inh | miR-21 reporter | GLA inh pH 4.5
# Results for Cc1c(N=Cc2ccc(Cl)o2)c(=O)n(-c2ccccc2)n1C → -6% | -2.3% | 2% | -24
# Results for O=C(Nc1cccc(S(=O)(=O)NC2=NCCC2)c1)C1CC(=O)N(c2ccc3c(c2)OCCO3)C1 (stereo unspecified) → 0% | -1.4% | -2% | -5
# Results for COC(=O)c1ccc(Cn2cnc3c(N)ncnc32)cc1 → -2% | 0.5% | . | .
# Results for CCOc1ccccc1NC(=O)Cn1[nH]c(=O)c2ccccc2c1=O → . | . | -2% | -7
# Results for CCCc1nc2ccc([N+](=O)[O-])cc2[nH]1 → -2% | ? | -1% | 2

# (listing goes on)
SMILES,Rango release inh,Rango complex inh,miR-21 reporter,GLA inh pH 4.5
COc1cc(-c2csc(CCn3nc(C)cc3C)n2)cc(OC)c1OC,3%,0.0%,10%,5
O=C(CN1C(=O)c2cccc3cccc1c23)NCc1ccccn1,?,?,-21%,3
Cc1nc(SCC(=O)NCc2ccco2)c2oc3ccccc3c2n1,12%,2.1%,-11%,-7
COc1ccccc1-n1nnnc1SCC(=O)NCC1(N2CCOCC2)CCCCC1,17%,0.6%,.,.
COc1cccc(NC(=O)c2ccc(-n3cccn3)nc2)c1,9%,7.0%,-12%,-16
CCCCn1c(SCc2cccc([N+](=O)[O-])c2)nc2ccsc2c1=O,22%,-4.9%,0%,-4
CC1=C(C(=O)OCc2ccccc2)C(c2ccc([N+](=O)[O-])cc2)NC(=O)N1 (stereo unspecified),-4%,-4.5%,10%,.
O=C(CN1C(=O)COc2ccc(S(=O)(=O)N3CCCC3)cc21)NCc1ccccn1,-4%,2.7%,0%,1
COc1ccc(NC(=O)C2C3C=CC4(CN(Cc5cccnc5)C(=O)C24)O3)c(OC)c1 (stereo unspecified),1%,1.4%,-2%,7
CCC(OC(C)=O)c1cc2c(cc1[N+](=O)[O-])OCCO2 (stereo unspecified),-16%,1.8%,-4%,-12

# A draw from above in order of count of non-hydrogen atoms, rising:
SMILES,Rango release inh,Rango complex inh,miR-21 reporter,GLA inh pH 4.5
CCC(OC(C)=O)c1cc2c(cc1[N+](=O)[O-])OCCO2 (stereo unspecified),-16%,1.8%,-4%,-12
Cc1nc(SCC(=O)NCc2ccco2)c2oc3ccccc3c2n1,12%,2.1%,-11%,-7
COc1ccc(NC(=O)C2C3C=CC4(CN(Cc5cccnc5)C(=O)C24)O3)c(OC)c1 (stereo unspecified),1%,1.4%,-2%,7

# The list continues:
SMILES,Rango release inh,Rango complex inh,miR-21 reporter,GLA inh pH 4.5
O=C(COC(=O)c1ccc(OC(F)F)cc1)NCCNC(=O)COC(=O)c1ccc(OC(F)F)cc1,-8%,1.9%,1%,.
CCOC(=O)c1cnc2c(Cl)cc(Cl)cc2c1NCCOCCO,-8%,?,0%,-2
O=S1(=O)CC(O)C(N(CCO)C(=S)Nc2ccccc2)C1 (stereo unspecified),-3%,1.8%,0%,-7
CCOC(=O)C1=C(C)N(C)C(=S)NC1c1ccc(Cl)cc1Cl (stereo unspecified),-2%,-5.4%,-4%,-2
CCc1cc(SC#N)cc(C)c1NC(=O)CCl,15%,-3.6%,?,3
N#CCSc1nnc2c(Cl)cc(Cl)cn12,-14%,-0.8%,-7%,-10
CCc1cccc(C)c1NC(=O)c1cccnc1,-6%,-1.6%,-1%,.
COc1ccc(-c2nc(C#N)c(NCCCn3ccnc3)o2)cc1OC,-16%,0.0%,-72%,4
COc1ccc(-c2nc(C#N)c(N3CCC(C)CC3)o2)cc1,3%,5.6%,-7%,.
CCCCN(CC)CCNC(=O)c1cn(-c2ccc(Cl)cc2)c(=O)c2ccccc12,1%,-0.9%,0%,-4
Clc1ccc(-c2noc(CSc3nnc(Cc4cccs4)n3-c3ccccc3)n2)cc1,-11%,-4.1%,7%,-8
Fc1ccc(-n2nnnc2-c2ccccc2Cl)cc1,-11%,0.0%,-2%,7
CC1CCCCC1NC(=O)COc1ccccc1C#N (stereo unspecified),-13%,-2.6%,.,.
CCOC(=O)CC(=O)CSc1ccc2nnc(-c3ccccc3)n2n1,-9%,0.1%,-2%,-1
COc1ccc(-c2noc(C3CCCN(C(=O)c4ccccc4C)C3)n2)cc1 (stereo unspecified),19%,0.0%,20%,.
COc1ccc(-c2cnc3nc[nH]c(=O)c3n2)cc1,-21%,?,-25%,-2
CCCN1CCN(CCCNC(=O)c2ccc(CS(=O)c3ccc(OC)cc3)o2)CC1 (stereo unspecified),-18%,-0.5%,2%&-5%,.
Cc1ccc(NC(=O)Nc2cccnc2)cc1,13%,0.8%,-29%,.
COc1ccc(-c2csc(Cc3nnc4n3CCCCC4)n2)cc1OC,1%,4.2%,-5%,-1
O=C(NCCCN1CCN(c2ccccc2F)CC1)Nc1ccc(F)cc1,23%,-3.2%,-6%,-5
O=C(NC1CCCCC1)n1c(=O)oc2ccccc21,-10%,-1.2%,-16%,-15
O=C1OCC(O)=C1Cc1ccccc1,17%,-5.3%,.,.
O=c1[nH]n(-c2ncnc3c2cnn3-c2ccccc2)c(=O)c2ccccc12,-6%,0.8%,1%,6
COc1cc(C(=O)N2CCN(c3cccc(C)c3C)CC2)ccc1OCC(=O)N1CCOCC1,-11%,-0.6%,.,.
O=S(=O)(c1ccc(Br)c2nsnc12)N1CCOCC1,-19%,-3.4%,1%,4
Cc1nn(Cc2ccccc2)c(Cl)c1C(=O)OCc1nnc(-c2ccccc2)o1,-4%,-1.8%,-1%,5
Cc1ccc(C)c(N2CCN(C(=O)c3cc4c(C)nc5ccccc5c4o3)CC2)c1,0%,3.8%,12%,.
OC(COCc1ccc2c(c1)OCO2)CN1CCC(Cc2ccccc2)CC1 (stereo unspecified),26%,-2.5%,-7%,3
Cc1ccc(C2C3=C(CC(C)(C)CC3=O)NC3=C2C(=O)CC(C)(C)C3)o1,-37%,?,-34%,2
Cc1ccccc1C(=O)NC(CC(C)C)C(=O)Nc1cccc(S(=O)(=O)N(C)C)c1 (stereo unspecified),1%,3.4%,1%,6
O=C1OC(Nc2ncccn2)c2ccccc21 (stereo unspecified),-2%,?,-1%,0
Cc1ccc(S(=O)(=O)N2CCN(C(=O)COC(=O)/C=C/c3ccc(C(F)(F)F)cc3)CC2)c(C)c1,-2%,0.1%,.,.
COc1ccc(CC(=O)OCC(=O)NCc2ccco2)cc1OC,?,-1.9%,.,.
COC(=O)C1=Cc2cc(OC)cc([N+](=O)[O-])c2OC1N1CCOCC1 (stereo unspecified),2%,0.1%,0%,.
Cc1ccc(-c2nc(N)sc2-c2ccccc2)cc1C,-4%,-1.9%,1%,8
CC(C)(C)OC(=O)N1CCC[C@H]1c1nnc(SCc2ccccc2Cl)o1,-5%,0.2%,-3%,-2
CCCOC(=O)CSc1nc(N2CCOCC2)c2c(c1C#N)CC(C)(C)OC2,-15%,4.1%,-3%,.
CCn1cc(/C=N\NC(=O)C2(C)CC2(Cl)Cl)c(C)n1 (stereo unspecified),1%,-1.7%,1%,1
CCc1cc(C(=O)NNC(=O)CCl)sc1C,2%,0.3%,9%,4
O=C(COC(=O)c1cccs1)Nc1ccccc1[N+](=O)[O-],-17%,0.9%,0%,6

# High-throughput results deposited in PubChem BioAssay by National Center for Advancing Translational Sciences (NCATS).
